LANA-H2A inh = blocks KSHV LANA binding to histone H2A/H2B; Q9QR71; cell-free LANA-H2A/H2B peptide, fluorescence polarization; inhibition, % (concentration not given with the values); 0.6% of 320,000 active; AID 2629; in the data active = inhibition mostly above about 10%, no sharp cut-off; inactive = mostly below about 6.7%;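 also: stock transfer was 7.5 nL into about 10 µL; 0% = median of vehicle wells and 100% = median of positive control wells; one replicate is shown; the record names a cut of 25% in any replicate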
UCH37 DUB inh = inhibitors of human deubiquitinating enzyme UCH37; Q9Y5K5; purified proteasome/UCH37, Ub-AMC cleavage fluorescence; inhibition, % (concentration not given with the values); 0.33% of 330,000 active; AID 588478;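 active = mean of two replicates above 20%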;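 also: 0% = compound-free wells with enzyme and 100% = wells lacking proteasome; stock transfer was 100 nL into about 20 µL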
Target sequence (Q9Y5K5 whole entry, looked up): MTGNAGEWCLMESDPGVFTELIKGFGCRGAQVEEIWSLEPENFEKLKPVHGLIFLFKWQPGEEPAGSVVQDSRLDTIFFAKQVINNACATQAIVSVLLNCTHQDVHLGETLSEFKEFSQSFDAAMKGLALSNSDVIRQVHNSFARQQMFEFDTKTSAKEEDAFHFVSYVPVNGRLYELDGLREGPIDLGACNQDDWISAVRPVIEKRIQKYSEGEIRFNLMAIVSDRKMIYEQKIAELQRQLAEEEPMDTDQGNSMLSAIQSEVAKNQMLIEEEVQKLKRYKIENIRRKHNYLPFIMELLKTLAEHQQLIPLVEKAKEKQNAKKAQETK
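Test system – human UCH37 enzyme supplied as purified proteasome complex · Incubation – 30 min preincubation with enzyme, 25 min cleavage at room temperature · Detection – AMC fluorescence from Ub-AMC cleavage, excitation 355 nm, emission 460 nm · Benchmarks – no-proteasome wells (full inhibition) and compound-free wells (no inhibition)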
Bfl-1 A1 inh = inhibitors of the anti-apoptotic protein A1, read as caspase activation; MEF A1-2A-BIM cells, Caspase-Glo 3/7 luminescence, 3 h; percent of clofoctol response, vehicle zero; caspase activation, % (concentration not given with the values); 0.066% of 330,000 active;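 active = over half of replicate activation scores above 10%, or exactly half above 10 with the replicate mean above 10; inconclusive = replicate mean below 10 yet half the replicates above 10; inactive = over half of replicates below 10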;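 also: wells of about 30 µL received 50 nL stock; many hits fall short of the cut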
Vif TR-FRET = inhibitors of Vif binding to APOBEC3G peptide, primary screen, biochemical, TR-FRET, GST-Vif 1-94, biotin-A3G peptide, dose response retest (AID 1117319); TR-FRET GST-Vif / biotin-A3G peptide binding; higher % means a stronger effect; test concentration not given here; strong numbers were not always called active; one-dose inhibition, %; IC50 in µM for titrated hits; 0.57% of 260,000 active;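 active = above the screen mean plus three standard deviations and confirmed in dose response; inconclusive = results disagree or hit not tested in dose response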;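 also: Vif residues 1-94 fused to GST binding biotinylated APOBEC3G peptide 110-148; 0% = full assay without inhibitor and 100% = GST in place of GST-Vif; retest series ran down from 100 µM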
B2AR ag = agonists of human beta-2 adrenergic receptor inducing internalization; Am2.2-beta2AR cells, FAP receptor internalization, flow cytometry; reference of the scale not given here; 0.43% of 340,000 active; response, % (test concentration not listed); P07550;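 active = response above a set limit, near 3 SD of response in nonfluorescent compounds, cut at about 42% in these data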;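 also: stock transfer was 100 nL into about 11 µL; a reference agonist was the positive control; negative values mostly stem from fluorescent compounds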
HNF4A DNA FP = change in binding of human HNF4 alpha to DNA. P41235. HNF4a-FITC DNA binding, fluorescence polarization, 1 h. activity change, % at 10 µM. 0.3% of 360,000 active. AID 1224865; in the data active = activity change above about 30%, passing the limit was not always enough;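 also: controls were the assay level and a saturating level of protein; the project sought stronger binding though the title names inhibitors; some compounds called inactive have numbers as strong as hits; positive values seem to mean higher polarization but the record does not say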
Target sequence (P41235 whole entry, looked up): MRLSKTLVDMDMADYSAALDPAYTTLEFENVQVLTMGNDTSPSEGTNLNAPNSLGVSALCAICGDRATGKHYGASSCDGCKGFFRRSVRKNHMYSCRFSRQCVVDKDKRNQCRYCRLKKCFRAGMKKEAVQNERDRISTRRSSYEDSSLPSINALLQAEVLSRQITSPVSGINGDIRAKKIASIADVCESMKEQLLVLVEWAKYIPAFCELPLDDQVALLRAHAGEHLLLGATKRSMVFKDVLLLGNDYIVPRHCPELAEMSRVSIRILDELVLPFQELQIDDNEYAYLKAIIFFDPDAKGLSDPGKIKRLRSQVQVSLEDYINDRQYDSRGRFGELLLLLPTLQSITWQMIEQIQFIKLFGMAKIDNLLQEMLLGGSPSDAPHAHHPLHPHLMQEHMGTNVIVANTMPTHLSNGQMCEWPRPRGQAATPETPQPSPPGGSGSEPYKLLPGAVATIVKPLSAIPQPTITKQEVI
Ecoli growth = E. coli growth inhibition; Escherichia coli growth, OD600, 23 h; hits give low values; OD600 absorbance (test concentration not listed); AID 1053175; 0.21% of 330,000 active;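 active = OD600 absorbance below the run mean of sample wells minus 3.6 SD, in any replicate, cut at about 0.56 in these data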;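 also: stock transfer was 300 nL into about 60 µL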
Active calls of the source: *; ? = inconclusive; . = no result given.

The line under a structure holds: LANA-H2A inh	UCH37 DUB inh	Bfl-1 A1 inh	Vif TR-FRET	B2AR ag	HNF4A DNA FP	Ecoli growth
COc1ccc(C(=O)N2CCCCCC2)cc1S(=O)(=O)N1CCOCC1
  3.9	5.9	0.9	.	2.7	-4.9	0.668
CC(C)(CNC(=O)c1ccc([N+](=O)[O-])c(Cl)c1)CNC(=O)c1ccc([N+](=O)[O-])c(Cl)c1
  -0.7	3.4	0.6	19.7%	7.2	1.3	0.726
O=C(C1CCC(=O)N(C2CCCC2)C1)N1CCC(Oc2ccccc2Cl)CC1 (stereo not given)
  1.8	0.8	0.5	-2.5%	-0.9	0.2	0.686
O=C(Nc1ccc2c(c1)oc1ccccc12)C1CC1
  0.1	-4.7	0.1	5.0%	4.6	-1.3	0.766
O=C1NC(c2ccc(O)cc2)Nc2ccccc21 (stereo not given)
  1.5	-299.4	-1.5	.	-7.1	-3.5	0.6
O=C1c2ccccc2C(=O)N1CCCSc1nc2ccccc2o1
  15.5*	-6.7	-0.1	29.4%	-11.8	-0.8	0.729
Cc1ccc(-c2nc3ccccc3[nH]2)cc1N
  1.1	-109.5	-5.6	9.9%	-8.6	-2.3	0.698
O=S(=O)(Nc1ccc(Cc2ccncc2)cc1)c1ccc(Br)s1
  -0.3	1.1	0.4	6.6%	-7.4	0.7	0.617
COc1ccc(C(=O)O)cc1S(=O)(=O)NC(C)C
  1.0	3.4	0.2	7.6%	4.7	-2.1	0.716
CCC(=O)Nc1nnc(SCC(=O)N2c3ccccc3CC2C)s1 (stereo not given)
  -0.8	3.5	1.5	15.2%	-9.1	-2.3	0.669
CCc1nnc(N/N=C/c2c(C)[nH]c3ccccc23)n1N
  -4.3	.	?	11.4%	7.4	2.1	.
O=C(COC(=O)CCc1ccccc1)NC12CC3CC(CC(C3)C1)C2
  -6.9	2.4	-0.6	-4.3%	5.0	3.4	0.657
CCN(CC(=O)NCc1ccc(Cl)cc1)C(=O)CN1C(=O)NC(CC)(c2ccccc2)C1=O (stereo not given)
  -8.1	-2.1	-0.1	.	11.1	-3.5	0.712
CCc1ccc(N(C2C=CS(=O)(=O)C2)S(=O)(=O)c2ccccc2)cc1 (stereo not given)
  -6.5	-2.8	-0.8	.	4.7	0.8	0.708
CC(C)CSc1nnc2c(n1)[nH]c1ccccc12
  -2.8	0.6	-4.4	-10.3%	-0.8	0.6	0.721
Cc1ccc(-c2ccc(C(=O)O)o2)cc1Cl
  2.3	-0.4	0.0	-2.0%	-2.1	-1.3	0.719
Cc1cc(CN2C(=O)c3ccccc3C2=O)cc(N2CCOCC2)c1
  4.1	5.5	0.1	39.9%	-13.7	-4.2	0.676
c1cc2c3c(cccc3c1)NC(c1ccc3c(c1)OCO3)N2
  0.6	-9.8	0.2	-0.1%	9.4	2.8	0.66
C[C@]12CC[C@@H]3c4ccc(O)cc4CC[C@H]3[C@@H]1CC[C@@H]2OC(=O)CCC1CCCC1
  2.0	-0.6	?	.	4.4	1.8	.
Cc1cccc(NC(=O)CCC(=O)N/N=C/c2cc([N+](=O)[O-])ccc2O)c1
  2.1	.	0.3	.	1.0	-1.2	.
CCCCn1c(=O)[nH]c(=O)c2c1nc(-c1ccc(OCCC)c(OCC)c1)n2CCOC
  -2.7	-46.5	0.1	0.5%	-7.1	0.5	0.695
O=C(COC(=O)c1ccc(-c2ccc([N+](=O)[O-])cc2)o1)NC(=O)NC1CCCCC1
  -0.2	7.4	-3.1	.	-8.8	1.0	0.673
CCC1(c2ccc(F)cc2)NC(=O)N(CC(=O)N2CCc3ccccc32)C1=O (stereo not given)
  9.4	-3.5	0.2	7.1%	-3.1	3.2	0.703
COc1cc(=O)oc(-c2ccccc2)c1C(C)=O
  1.5	1.9	0.6	.	0.8	-0.5	0.625
CC(=O)Nc1cccc(NC(=O)CN2c3cccc4cccc(c34)S2(=O)=O)c1
  -8.6	-55.2	0.5	5.0%	7.0	1.8	0.704
O=C(CCC1CCCC1)NCCCNC(=O)CCC1CCCC1
  2.5	1.3	-0.2	0.8%	-11.3	5.6	0.714
COCCCNc1nc2c(c(=O)n(Cc3cccc(Br)c3)c(=O)n2C)n1C
  -4.6	1.4	0.8	.	9.2	-1.6	0.636
CCOC(=O)c1cc(NC(=O)c2ccc(C)cc2)c(=O)oc1C(F)(F)F
  5.4	2.5	-0.8	-0.5%	8.1	-0.1	0.71
Cn1c(/C=N/Nc2nc3ccccc3[nH]2)nc2ccccc21
  -8.1	.	-4.7	0.2%	-1.2	-0.2	.
CCCCN1CC[C@H]2C=CC[C@@H](C(=O)N3CCN(c4ccccc4)CC3)[C@H]2C1=O
  1.2	2.7	0.4	.	-2.9	1.9	.
Cc1cc(C)cc(NC(=S)Nc2ccc3cn[nH]c3c2)c1
  .	1.3	-0.7	18.7%	-0.5	-0.6	0.71
CCCc1nnc(SCC(=O)Nc2cccc(Cl)c2Cl)o1
  2.2	-0.6	0.8	.	-1.9	2.9	0.696
Cc1ccc(NC(=O)c2cccs2)cc1NC(=O)c1ccco1
  -0.4	0.3	0.1	2.4%	-12.0	-0.2	0.703
Cc1ccc(-c2nc3ncccc3o2)cc1NC(=O)c1ccc([N+](=O)[O-])o1
  2.3	2.3	0.0	.	11.0	4.6	0.585
CCOc1ccc(N(CC(=O)NCCSc2ccccn2)S(C)(=O)=O)cc1
  -2.5	-4.0	0.8	?	2.0	1.0	0.741
FC(F)(F)c1ccccc1CN1CCCC(N2CCN(c3ccccc3)CC2)C1 (stereo not given)
  5.4	3.0	1.7	.	6.2	-0.9	0.629
CC(C)(C)NS(=O)(=O)c1cc(C(=O)Nc2sccc2C#N)ccc1Cl
  -1.4	3.0	0.0	.	1.2	27.6	0.676
CCOC(=O)C1=NNC2(c3ccc(C)cc3)C(=O)N(c3ccccc3)C(=O)C12 (stereo not given)
  4.8	1.7	0.5	0.4%	11.9	1.2	0.657
CCc1nc(NCCN2CCOCC2)c(C#N)c2c1CCCC2
  -0.4	-4.0	0.2	0.3%	-8.9	-2.3	0.676
COC(=O)c1ccccc1S(=O)(=O)N1CCC(C(=O)OC(C)C(=O)NC(N)=O)CC1 (stereo not given)
  -6.2	0.0	-0.5	4.3%	-0.9	1.9	0.7
O=c1c(C=NCC2CCCO2)c(-c2ccccc2)[nH]n1-c1ccc([N+](=O)[O-])cc1 (stereo not given)
  4.3	6.4	-0.4	.	-11.2	4.9	0.755
Cc1cc(C)n2nc(SCC(=O)N3CCOCC3)nc2n1
  -8.7	0.7	1.1	.	3.5	4.0	0.639
COc1ccc(NC(=O)C2OCCc3ccccc32)c(OC)c1 (stereo not given)
  0.1	2.6	0.7	6.7%	-7.8	-3.5	0.698
CCc1ccc(-c2nc3ccc(Br)cc3c(C(=O)O)c2C)s1
  4.5	-160.9	0.5	.	7.1	2.5	0.659
COc1ccc(C2SCCN2S(=O)(=O)c2ccc(NC(C)=O)cc2)cc1 (stereo not given)
  1.0	-1.1	0.2	2.4%	1.6	-3.2	0.692
Cc1ccc(SCC(=O)Nc2nccs2)cc1
  0.7	1.1	-1.1	12.6%	2.1	0.2	0.684
CC(C)CCC1CC(CSC(=N)N)OC1=O (stereo not given)
  3.1	2.1	0.6	9.3%	-2.6	-5.3	0.662
CC(c1ccco1)N(C(=O)COc1ccc(Cl)cc1)c1ccccn1 (stereo not given)
  1.3	-0.4	-3.7	-1.8%	-2.4	-4.2	0.668
CCN(CC)C(=O)C(=O)c1cn(CC(=O)NCC2CCCO2)c2ccccc12 (stereo not given)
  -2.4	2.5	?	23.6%	-0.6	1.8	0.69
CCC(=O)NC(=S)Nc1ccc(OC)cc1OC
  3.3	3.5	0.3	0.1%	-5.0	-1.4	0.689
COC(=O)c1cc(NC(=O)c2cccc(C(F)(F)F)c2)c(=O)oc1C/C=N/OCc1cccc(Cl)c1Cl
  -1.4	.	0.1	21.9%	-9.1	28.4	.
CCCCC1CCC(C(=O)OCC(=O)N(CCOC)c2c(N)n(Cc3ccccc3)c(=O)[nH]c2=O)CC1 (stereo not given)
  -2.3	3.6	0.4	8.7%	1.9	-4.0	0.676
O=C(Nc1ccc(NC(=O)c2ccco2)cc1)c1cnccn1
  0.1	2.9	-4.9	26.2%	-7.6	0.2	0.676
O=C(CSCc1ccccn1)Nc1ccccc1
  -2.6	-2.1	0.4	0.7%	-7.6	-0.1	0.792
COc1ccc(C(=O)NC2CCCN(Cc3ccccc3F)C2)c(OC)c1OC (stereo not given)
  2.3	4.7	0.4	.	-0.4	-0.7	0.678
COc1cc(C#Cc2c(-c3cncn3C)n(C)c3ccc(-c4ccc5cc[nH]c5c4)cc23)cc(OC)c1
  1.7	-33.7	0.1	.	-8.3	3.7	.
CCOC(=O)C1=C(O)/C(=C/c2ccccn2)SC1=Nc1ccc(Cl)cc1
  -1.8	-4.6	-0.6	23.5%	-4.8	0.4	0.653
O=C(C1Cc2ccccc2CN1S(=O)(=O)c1ccc(F)cc1)N1CCOCC1 (stereo not given)
  -3.7	-0.6	1.4	3.6%	-0.7	-2.2	0.661
CC(=O)[C@H]1CC[C@H]2[C@@H]3CC=C4C[C@@H](O)CC[C@]4(C)[C@H]3CC[C@]12C
  6.0	0.0	0.8	.	-20.4	3.0	0.654
CCOc1ccc(CN2CCCC(CNC(=O)c3ccc(F)cc3)C2)cc1CO (stereo not given)
  -7.2	1.3	0.4	2.0%	-2.2	0.8	0.689

The list continues.
The line under a structure holds: LANA-H2A inh	UCH37 DUB inh	Bfl-1 A1 inh	Vif TR-FRET	B2AR ag	HNF4A DNA FP	Ecoli growth
Cc1cc(OCC(=O)OCC(=O)Nc2cc(C(F)(F)F)ccc2N2CCOCC2)ccc1Cl
  -4.3	4.3	0.1	-4.3%	-5.1	-0.3	0.672
Cc1[nH]c(=O)[nH]c(=O)c1/C=N/NC(=O)[C@@H](NC(=O)OC(C)(C)C)C(C)C
  -1.9	.	-0.3	-7.4%	7.9	-2.1	.
O=C(CNS(=O)(=O)c1cccs1)N1CCCCC1
  -1.4	1.4	0.1	-2.0%	0.5	1.8	0.672
COC(=O)[C@H](CC(C)C)NC(=O)c1cc2c(cn1)[nH]c1ccccc12
  -1.9	-14.7	-1.8	-0.6%	6.8	1.1	0.635
CCCc1nc(SCC(=O)N2CCC(C)CC2)c2c(=O)n(C)c(=O)n(C)c2n1
  10.8	5.8	-0.2	6.6%	-0.7	-0.5	0.69
O=[N+]([O-])c1cc(C(F)(F)F)ccc1NCCCCNS(=O)(=O)c1ccc2ccccc2c1
  -2.7	4.2	-0.1	15.6%	4.1	7.9	0.689
CCn1c(C)c(C)c2cc(C(=O)N3CCN(c4ccccc4)CC3)ccc21
  -3.5	4.8	-0.5	.	11.4	4.1	0.707
Fc1ccccc1CNc1ccc(Cl)c(Cl)c1
  -0.1	1.9	1.0	-0.1%	3.2	1.8	0.686
O=C(N/N=C/C=C/c1ccc([N+](=O)[O-])cc1)C1COc2ccccc2O1 (stereo not given)
  -0.3	.	0.7	.	13.9	0.1	.
O=c1oc(Nc2ccccc2F)nc2ccccc12
  2.2	-4.0	-6.2	1.7%	9.8	2.7	0.72
Cc1nc2scc(-c3cccs3)c2c(=O)n1-n1cccc1
  3.7	-0.2	-0.1	7.9%	-9.8	-0.9	0.742

Assay outcomes: PubChem BioAssay, several laboratories
